Screens: PubChem, several laboratories
Bead autofluor: compound fluorescence in toxin protease inhibitor counterscreen. compound autofluorescence counterscreen, microsphere flow cytometry; hits give high values. AID 624483. fluorescence intensity (concentration not given with the values). hit rate 3.1% among 360,000;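 active = at least 3 SD above the mean of all compounds, about 16000 in these data; inconclusive = too few beads counted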;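 note: 100 nL of 1 mM stock went into each well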
BJeLR lethal: BJeLR cell viability loss. BJeLR (HRASV12) viability, CellTiter-Glo ATP luminescence, 48 h; reference of the scale not given here. inhibition, % (no concentration beside the values). hit rate 0.17% among 300,000. AID 1554;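 active = replicate mean above 50%; inconclusive = above 50% but judged a plate artefact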;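 note: 50 nL library stock added to about 25 µL; numbers are from one replicate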
PrP UTR inh: suppresses PrP 5' UTR mRNA reporter expression. cell-based PrP 5' UTR mRNA reporter, plate reader. hit rate 0.35% among 340,000. inhibition, % (no concentration beside the values);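 active = every replicate at 50% or more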;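 note: 0 = median of the neutral control wells; tested in H4 reporter cells; numbers are from one replicate; inactives centre near -14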
Sa RN4220 lethal: kills Staphylococcus aureus RN4220. S. aureus RN4220 growth, OD600, 16 h. inhibition, % (no concentration beside the values). hit rate 0.33% among 330,000. AID 1259311;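 active = z-score of -3 or lower and OD600 up to 0.18 on both plates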;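 note: plate controls were untreated cells for no effect and reference antibiotic for full effect; stock transfer was 100 nL into about 80 µL; one replicate is shown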
Mtb hypoxia inh: inhibitors of hypoxia-regulated fluorescent reporter in Mycobacterium tuberculosis | M. tuberculosis hypoxia-regulated fluorescent reporter, fluorescence | fluorescence inhibition, % (concentration not given with the values) | hit rate 0.1% among 300,000 | AID 1159583;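 active = 35 to 45% if threefold the growth effect, above 45% if 1.5-fold the growth effect; inactive = the rest, general growth blockers included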;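 note: wells of about 50 µL received 100 nL stock; 0% = vehicle wells and 100% = reference inhibitor wells; whole bacteria with a GFP reporter of the hypoxia response; strong numbers were not always called active; many hits fall short of the cut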
ugtP null kill: compounds lethal to S. aureus RN4220 ugtP deletion mutant; OD600 growth, 16 h; some inactives read as strong as hits; growth inhibition, % (test concentration not listed); hit rate 0.54% among 330,000;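 active = z-score under -3 and OD600 up to 0.15 on both plates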;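 note: plate controls were untreated wells for no effect and antibiotic for full effect; wells of about 80 µL received 100 nL stock; the first replicate is given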
Mtb hypoxia inh growth: second read-out of Mtb hypoxia inh, no call of its own (marks repeat the call); growth inhibition, %; measured here: M. tuberculosis growth (absorbance);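 0% = vehicle and 100% = reference antibiotic; read after six days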
* hit, by the source's call; ? = inconclusive; / = no result given; & = joins results of further samples.

mol	Bead autofluor	BJeLR lethal	PrP UTR inh	Sa RN4220 lethal	Mtb hypoxia inh	Mtb hypoxia inh growth	ugtP null kill
Cc1ccc(NC(=O)CCC(=O)NNS(=O)(=O)c2ccc(Cl)cc2)cc1C	5557	/	1	0.6	-4	9	-7
Cc1cc(OCCCCCNCCO)cc(C)c1Cl	10370	-12	/	-2.6	14	15	-8
Cc1ccc(OCC(=O)NCCO)c(Br)c1	4413	0	-21	0.9	14	2	4
CCOC(=O)N1CCC(NC(=O)C2CCN(S(=O)(=O)N3CCCC3)CC2)CC1	11965	-16	-20	3.4	17	6	6
COc1ccc(C(=O)N2CCN(C(C)=O)CC2)cc1S(=O)(=O)NCc1ccc(Cl)cc1	4936	3	-24	3.6	/	/	14
CC(C)c1ccc(NC(=O)C2CCN(S(C)(=O)=O)CC2)cc1	3887	-3	-17	-2.4	/	/	6
CC12CN(C(=S)Nc3ccccc3)CC(C)(CN(C(=S)Nc3ccccc3)C1)C2=O	2230	1	-21	/	/	/	/
Cc1cc(C)n(/N=C/c2ccco2)c(=O)c1C#N	1993	7	-8	/	/	/	/
CCOC(=O)CSc1nnc(Cn2nnc3ccccc32)n1-c1ccc(F)cc1	/	-16	/	2.7	11	-3	-1
COc1ccc(NC(=O)c2cccs2)c([N+](=O)[O-])c1	2501	3	-66	-0.9	10	-1	2
O=C(Nc1ccc(Cl)cn1)c1ccc([N+](=O)[O-])o1	2030	-6	-22	8.6	0	6	7
COc1cc(/C=N/NC(=O)c2cc(-c3ccc4c(c3)OCO4)n[nH]2)ccc1O	1957	9	6	/	/	/	/
Cc1cc(C(=O)NN=Cc2cccc(OC(=O)c3cccc(Br)c3)c2)n[nH]1	/	/	/	1.1	-3	0	2
CCC(C)(C(=O)NC1CCCC1)N(C(=O)c1ccccn1)c1ccccc1 (centres undefined)	15634	4	4	3.2	2	1	1
CCCCOc1ccc(C(=O)NCC(=O)NCC(c2ccc(F)cc2)N2CCOCC2)cc1 (centres undefined)	6359	-5	-21	1.2	2	2	8
Cc1ccc2nc(Cl)c(C=NNC(=O)C3CC3c3ccccc3)cc2c1 (centres undefined)	/	/	/	-2.1	2	5	-3
OCC1(Cc2ccc(Cl)cc2)CCN(Cc2ccc3nsnc3c2)CC1	5262	-8	-28	0.6	12	11	7
COc1ccccc1C(CNC(=O)c1cccc(S(=O)(=O)N2CCCc3ccccc32)c1)N(C)C (centres undefined)	3959	/	-25	3.7	10	3	4
COc1ccc(Cl)cc1NC(=S)NCCO	4482	4	-15	-1.1	-1	-1	4
CS(=O)(=O)N1CCN(c2ccccc2NC(=O)c2cccs2)CC1	2876	-2	-44	3.0	1	11	2
CCn1c(=Nc2ccc(N3CCOCC3)cc2)ccc2ccccc21	4165	-7	-34	-0.8	/	/	-4
Cc1ccc(Sc2cnn(-c3ccccc3)c(=O)c2Cl)cc1	3189	-5	-17	11	6	8	13
O=C1CSC(=NN=Cc2ccccc2)N1c1ccc(O)cc1	/	/	/	5.4	14	5	6
CC(=O)CCC(=O)N1CCC(n2nccc2NC(=O)c2ccccc2C)CC1	4572	2	-12	3.8	-3	-2	8

Looked up by compound from the entries so far (two):
mol	Bead autofluor	BJeLR lethal	PrP UTR inh	Sa RN4220 lethal	Mtb hypoxia inh	Mtb hypoxia inh growth	ugtP null kill
COc1ccccc1C(CNC(=O)c1cccc(S(=O)(=O)N2CCCc3ccccc32)c1)N(C)C (centres undefined)	3959	/	-25	3.7	10	3	4
Cc1ccc(Sc2cnn(-c3ccccc3)c(=O)c2Cl)cc1	3189	-5	-17	11	6	8	13

The list continues.
mol	Bead autofluor	BJeLR lethal	PrP UTR inh	Sa RN4220 lethal	Mtb hypoxia inh	Mtb hypoxia inh growth	ugtP null kill
COc1ccc(-c2cc(N3CCCC3)n3ncnc3n2)cc1	2699	2	-7	4.4	/	/	3
NCCCn1c(C(=O)c2cc(Cl)c(N)c(Cl)c2)c2ccccc2[n+]1[O-]	4058	3	-12	5.6	8	7	2
CCOc1ccc(NC(=O)CSc2nnc(Cc3cccn3C)n2-c2ccc(F)cc2)cc1	6157	-37	-21	0.2	/	/	9
O=c1[nH]c(SCCOc2ccccc2)nc2ccccc12	10122	-7	-13	3.3	5	0	-6
CC(C#CCN1CCCCC1)OCCOCc1ccccc1 (centres undefined)	2488	4	-11	8.6	16	9	1
Cc1cccc(OCC(=O)OC(C)C(=O)Nc2ccc(Cl)cn2)c1 (centres undefined)	?	3	-2	6.2	3	5	5
Cc1nc(N)sc1N=Nc1c(C)n(C)n(-c2ccccc2)c1=O	3281	10	-11	7.2	20	17	2
CCOC(=O)c1c(-c2ccccc2)oc2ccc(OCC(O)CN(C)C)cc12 (centres undefined)	5396	1	-4	-5.8	23	16	-8
Cc1ccccc1C(=O)N1CCN(c2ccc(N3CCOCC3)nn2)CC1	4354	-1	0	2.1	1	-7	10
Cn1c(=O)c2c(nc(CN3CCOCC3)n2Cc2ccccc2)n(C)c1=O	9091	/	-21	-0.4	3	-4	4
S=C(NCCCc1ccccc1)Nc1ccc(Br)cc1	5557	/	-8	33	12	17	16
CC(C)c1ccc2[nH]c3nc(SCC(=O)NC4CC4)nnc3c2c1	3996	0	-13	3.4	-4	-13	-4
CCOC1OC(C(=O)NCc2ccccc2)=CC(C2CCCCC2)C1CCCO (centres undefined)	/	/	/	3.2&3.4	11&7	2&11	-3&-2
O=C(CSC1=NCCS1)Nc1nc(-c2ccccc2)cs1	4115	-9	-34	-0.8	-50	-7	15
CCOc1cc2[nH]c(=S)n(CC3CCCN3CC)c(=O)c2cc1OCC (centres undefined)	12048	1	0	4.5	1	9	7
O=C(NCc1ccccc1Cl)C(=O)NCC1OCCN1S(=O)(=O)c1ccc(F)cc1 (centres undefined)	4981	-4	-28	1.0	1	-3	6
CCOc1ccc(OCC)c(Nc2cc(C)nc3ncnn23)c1	4353	-3	-6	5.2	/	/	2
CCOC(=O)N1N=C(c2ccc(OC)cc2)CC1(O)C(F)(F)F (centres undefined)	2815	-4	-60	2.0	17	8	10
Cc1cc(N2CCCC2)ccc1/C=C1\NC(=S)N(C)C1=O	5687	1	-34	18	13	1	-10
Cc1ccc(C=NNC(=O)CNC(=O)c2cccs2)o1	/	/	/	2.0	-6	0	5
Cc1ccc(CSC2=Nc3ccccc3C3=NC(=O)CN23)cc1	4461	6	-1	-1.4	12	7	7
OCCNc1nc(SCc2ccccc2)nc2sc3c(c12)CCC3	9603	1	-27	13	4	13	-3
Cc1cc(N2CCOCC2)nc2ccc(NC(=S)N3CCN(Cc4ccccc4)CC3)cc12	2066	-2	-20	2.9	-1	10	5
CSc1ccc(S(=O)(=O)NC2CC3CCC2C3)cc1 (centres undefined)	4127	-9	-14	3.8	-1	6	8
CC(C)CCc1c(O)nc(SCC(C)C)[nH]c1=O	3384	-1	-16	6.3	17	8	7
C=CCn1c(SCC(=O)c2ccc(Cl)cc2)nnc1-c1ccc2c(c1)OCO2	2193	0	-9	4.0	-1	7	-20
CCC1=Nc2cc(C(=O)NCc3ccco3)ccc2Sc2ccc(C)cc21	7855	62*	69*	0.2	11	-5	-5
CC(=O)Oc1ccc(N(C(C)=O)S(=O)(=O)c2ccc3ccccc3c2)cc1	4021	9	-10	1.6	5	0	-1
COc1cc(NC(=O)C2CCN(S(=O)(=O)c3ccc(Cl)cc3)CC2)ccc1-n1cnnn1	9168	-6	5	8.0	3	3	0
CC(C)(C)NC(=O)Cn1c(SCC(=O)NC2CCCCC2)nc2ccccc21	10778	3	-59	7.1	7	4	-8
COc1ccc(C(=O)N/N=C/c2ccc(OC)c(CN3CCc4cc(OC)c(OC)cc4C3C)c2)cc1 (centres undefined)	6242	1	-27	/	/	/	/
CC(/C=N/Nc1nc(C)cc(=O)[nH]1)=C\c1ccccc1	2480	-9	-19	/	/	/	/
COc1ccccc1C1Nc2cccc3cccc(c23)N1	10242	0	-18	-3.2	16	13	-18
COC(=O)c1cc(S(=O)(=O)N2CCOCC2)ccc1Sc1ccccc1N	8569	4	8	3.7	0	-4	3
CCC(=O)OCc1cc(=O)oc2ccc3ccccc3c12	3632	-3	-28	6.2	0	7	15
Cc1ccc(C(=O)NC(c2ccccc2)C(Cl)Cl)cc1 (centres undefined)	2066	0	-31	6.9	11	10	-2
CC(=O)Oc1ccc(N(c2ccccc2)S(=O)(=O)c2ccc(C)cc2)cc1	3867	19	-17	7.7	6	-1	10
CN1CCN(N=Cc2ccc(Br)cc2)CC1	/	/	/	2.0	7	7	3
CNC(=S)N(Cc1ccc(OC)cc1)Cc1cc2cccc(C)c2[nH]c1=O	3860	-4	-11	1.6	-2	-2	-5
CCn1c(CNc2ccccc2Cl)nnc1SCC(=O)NCc1ccccc1	10771	-7	-23	2.1	10	5	7
CCCN(C(=O)COC(=O)CSc1ccc(C(N)=O)cc1[N+](=O)[O-])C1CCS(=O)(=O)C1 (centres undefined)	4584	/	-23	-0.4	-3	-3	0
COc1cc(C=NN2CCN(Cc3ccc(Cl)cc3)CC2)cc(Br)c1O	/	/	/	0.1	6	2	0
O=C(CNC(=O)C1CCCCC1)NCc1ccco1	2983	4	-11	4.0	1	-11	19
O=S(=O)(O)c1cc(O)c(N=Nc2ccc(O)cc2O)c2ccccc12	2802	/	-6	12	/	/	-7
COC(=O)Cc1ccc(NC(=S)N2CCN(c3ccc(F)cc3)CC2)cc1	8735	-2	-23	-1.4	2	-4	5
COc1ccc(C(c2c(C)[nH]n(-c3ccccc3)c2=O)c2c(C)[nH]n(-c3ccccc3)c2=O)cc1OC	9755	-3	-25	3.9	5	7	3
COc1ccc(-c2nnn(CC(=O)N(CCCO)C(C(=O)NC3CCCC3)c3ccncc3)n2)cc1 (centres undefined)	4576	-2	11	0.6	12	9	6
O=C(CC(NC(=O)OCc1ccccc1)C(=O)O)OCc1ccccc1 (centres undefined)	4288	0	-17	2.1	-2	6	-3
NC(=O)CC(NC(=O)c1ccccc1)c1ccc(NC2CCCCCCC2)c([N+](=O)[O-])c1 (centres undefined)	3745	4	-7	-13	14	-2	-8
COc1ccc(-c2ccc(SCc3cccnc3)nn2)cc1OC	4201	-6	-11	4.1	15	-2	6
CCN(c1ccccc1)S(=O)(=O)c1ccc(OC)c(NC(=O)Cc2ccccc2OC)c1	8810	/	-23	2.1	3	1	1
COc1ccc(Cc2nnc(SCC(=O)c3ccc4c(c3)NC(=O)CO4)o2)cc1	?	19	-6	2.1	8	11	3
Cc1cccc(C2=NN(c3ccc(Br)cc3)[C@@H](C(=O)N3CCOC3=O)[C@@H]2c2ccc([N+](=O)[O-])cc2)c1	3367	/	-19	-1.4	5	3	-12
COc1ccc(OCC(=O)NC(=O)c2ccccc2OC)c([N+](=O)[O-])c1	5535	-2	-20	3.3	-6	6	2
O=C1CC(/C=C/c2ccncc2)=Nc2ccccc2N1	4447	6	-19	2.2	6	16	-4
O=C(NCCN1CCOCC1)c1ccc(NS(=O)(=O)c2cccc([N+](=O)[O-])c2)cc1	/	-9	-27	0.2	2	-2	1

(continued)
mol	Bead autofluor	BJeLR lethal	PrP UTR inh	Sa RN4220 lethal	Mtb hypoxia inh	Mtb hypoxia inh growth	ugtP null kill
O=C(Nc1ccc2cn[nH]c2c1)c1ccc(Cl)c(S(=O)(=O)N2CCOCC2)c1	2597	4	-11	0.5	4	0	-2
Cc1cccc(C2CC(c3ccc(Br)cc3)Nc3nc(N)nn32)c1 (centres undefined)	5448	-3	-23	4.4	/	/	6
CCCn1nc(C(=O)N2CC(=O)Nc3ccccc32)c2ccccc2c1=O	3102	6	-11	2.1	9	3	4
COc1ccccc1NC(=O)CSc1ncn[nH]1	2538	-3	-21	3.9	13	8	1
COC(=O)c1ccccc1N=Cc1c(O)[nH]c(=S)[nH]c1=O	4771	1	-53	-1.1	10	5	2
Cc1ccc(OCCCCn2ccnc2)c([N+](=O)[O-])c1	2613	5	-8	4.7	6	-2	8
CCOC(=O)[C@@H]1CCNC[C@@H]1c1ccccc1	2734	-1	-6	1.8	/	/	-11
C#CCOc1ccc(Br)cc1/C=N/O	2360	2	-16	/	/	/	/
